# LANA-H2A inh: blocks KSHV LANA binding to histone H2A/H2B | Q9QR71 | cell-free LANA-H2A/H2B peptide, fluorescence polarization | inhibition, % (test concentration not listed) | 0.6% of 320,000 active; in the data active means inhibition mostly above about 10%, no sharp cut-off; inactive means mostly below about 6.7%;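 further: stock transfer was 7.5 nL into about 10 µL; 0% = median of vehicle wells and 100% = median of positive control wells; one replicate is shown; the record names a cut of 25% in any replicate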
# Target sequence (Q9QR71 whole entry, looked up): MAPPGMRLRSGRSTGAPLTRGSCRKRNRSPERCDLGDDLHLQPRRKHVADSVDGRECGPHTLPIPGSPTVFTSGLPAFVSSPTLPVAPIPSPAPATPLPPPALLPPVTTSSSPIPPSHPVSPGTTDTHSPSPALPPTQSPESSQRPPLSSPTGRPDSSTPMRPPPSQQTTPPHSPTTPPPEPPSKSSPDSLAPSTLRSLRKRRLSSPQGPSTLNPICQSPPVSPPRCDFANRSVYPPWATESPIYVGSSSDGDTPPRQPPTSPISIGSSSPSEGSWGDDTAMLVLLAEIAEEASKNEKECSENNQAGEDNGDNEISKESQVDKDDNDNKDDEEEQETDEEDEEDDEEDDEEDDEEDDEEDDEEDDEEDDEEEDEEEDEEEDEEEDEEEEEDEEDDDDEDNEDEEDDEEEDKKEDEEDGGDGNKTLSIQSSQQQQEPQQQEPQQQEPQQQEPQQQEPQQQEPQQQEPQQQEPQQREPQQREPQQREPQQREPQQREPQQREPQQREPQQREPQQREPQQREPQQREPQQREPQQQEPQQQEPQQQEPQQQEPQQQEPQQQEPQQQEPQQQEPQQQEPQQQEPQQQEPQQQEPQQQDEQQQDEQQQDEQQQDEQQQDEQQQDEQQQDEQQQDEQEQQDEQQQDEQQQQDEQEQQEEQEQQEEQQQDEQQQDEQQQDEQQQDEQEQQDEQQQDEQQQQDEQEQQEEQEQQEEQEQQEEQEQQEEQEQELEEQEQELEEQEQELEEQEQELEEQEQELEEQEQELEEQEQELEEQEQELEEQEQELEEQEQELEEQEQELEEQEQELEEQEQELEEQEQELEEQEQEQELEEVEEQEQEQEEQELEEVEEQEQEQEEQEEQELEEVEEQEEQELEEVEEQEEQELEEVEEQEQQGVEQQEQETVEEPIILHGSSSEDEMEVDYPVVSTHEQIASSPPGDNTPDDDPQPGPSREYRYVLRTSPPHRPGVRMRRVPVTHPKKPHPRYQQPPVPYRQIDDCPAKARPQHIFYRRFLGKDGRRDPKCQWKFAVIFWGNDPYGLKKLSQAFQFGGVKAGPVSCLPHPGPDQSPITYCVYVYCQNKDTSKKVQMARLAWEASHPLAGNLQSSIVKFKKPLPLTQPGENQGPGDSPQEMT
# Calb FLC: affects C. albicans growth with fluconazole | growth inhibition, % (no concentration beside the values) | C. albicans CaCi-2 (fluconazole-resistant clinical isolate) + fluconazole, Alamar Blue growth, 48 h | 0.57% of 300,000 active | AID 1979;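 active means most replicates above 75%; inconclusive means exactly half above 75%; inactive means most below 75%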;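 further: all wells also contain fluconazole at 8 µg/ml as a sub-toxic cotreatment; 0% = median of DMSO wells and 100% = median of geldanamycin control wells; wells of about 8 µL received 7.5 nL stock; the first replicate is given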
# rRNA inh HTS: selective bacterial rRNA inhibition in E. coli; GFP signal change (wild-type ribosome), % (test concentration not listed); E. coli WT GFP vs humanized-ribosome RFP mutants, fluorescence, 24 h; stronger effect = lower value; DMSO median 0, no signal -100; 1.6% of 350,000 active; AID 720706;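 active means significant combined selectivity score with lowered wild-type GFP, culture density cut under 30%, mutant RFP and density less affected; inactive means any of these conditions unmet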; further: one replicate is shown; some compounds called inactive have numbers as strong as hits
# Beta cell apopt: blocks beta cell apoptosis. INS-1E cytokine-induced death, ATP luminescence, 48 h; percent of positive-control rescue, neutral wells zero. AID 435005. protection from apoptosis, % (no concentration beside the values). 0.8% of 300,000 active;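 active means all replicates at 75% or more, or half of them and the mean; inconclusive means half reach 75% but not the mean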;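 further: 0% = cytokine-treated negative control wells and 100% = positive control rescue; higher means more ATP so stronger rescue from cytokine killing; wells of about 40 µL received 100 nL stock; the first replicate is given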
# T cruzi repl: T. cruzi replication inhibition | T. cruzi beta-gal in NIH3T3, luminescence, 90 h | inhibition, % (test concentration not listed) | 1.4% of 300,000 active | AID 1885;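 active means mean inhibition across valid replicates above about 55%, limit read from the data; inconclusive means mean below that limit but half or more replicates reach it; inactive means mean below it, under half of replicates reach it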;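 further: signal also drops with host cell toxicity which is not excluded here; 0% = plate median of DMSO wells and 100% = zero luminescence signal; higher percent means less beta-gal luminescence so fewer parasites; stock transfer was 50 nL into about 50 µL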
# Bfl-1 A1 inh: inhibitors of the anti-apoptotic protein A1, read as caspase activation; MEF A1-2A-BIM cells, Caspase-Glo 3/7 luminescence, 3 h; percent of clofoctol response, vehicle zero; caspase activation, % (test concentration not listed); 0.066% of 330,000 active;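 active means over half of replicate activation scores above 10%, or exactly half above 10 with the replicate mean above 10; inconclusive means replicate mean below 10 yet half the replicates above 10; inactive means over half of replicates below 10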;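 further: wells of about 30 µL received 50 nL stock; many hits fall short of the cut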
# B2AR ag: agonists of human beta-2 adrenergic receptor inducing internalization | response, % (test concentration not listed) | P07550 | 0.43% of 340,000 active | Am2.2-beta2AR cells, FAP receptor internalization, flow cytometry; reference of the scale not given here | AID 504454;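 active means response above a set limit, near 3 SD of response in nonfluorescent compounds, cut at about 42% in these data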;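 further: stock transfer was 100 nL into about 11 µL; a reference agonist was the positive control; negative values mostly stem from fluorescent compounds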
# ALR inh: blocks human ALR sulfhydryl oxidase activity; purified ALR, DTT oxidation, H2O2 HRP-luminol luminescence; 3.8% of 290,000 active; P55789; inhibition, % (concentration not given with the values); AID 485317;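 active means mean and each replicate at 75% or more; inconclusive means only one of the two met; inactive means neither met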;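 further: stock transfer was 7.5 nL into about 7.5 µL; 0% = neutral wells and 100% = wells with inactivated enzyme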
# rRNA inh HTS OD600: also measured in rRNA inh HTS; calls as there; OD600 change, %; measured here: OD600 growth;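 optical density of the mix in the first replicate; 0 = DMSO median and -100 = no signal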
# rRNA inh HTS RFP: further read-out of rRNA inh HTS, marked with its call; RFP signal change, %; measured here: RFP humanized mutant strains;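 first replicate; 0 = DMSO median and -100 = no signal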
# * hit, by the source's call; ? = inconclusive; . = not tested or not shown. A portion of the library; count on the stated rates, not on these rows.
compound,LANA-H2A inh,Calb FLC,rRNA inh HTS,rRNA inh HTS OD600,rRNA inh HTS RFP,Beta cell apopt,T cruzi repl,Bfl-1 A1 inh,B2AR ag,ALR inh
CN(Cc1nccs1)C(=O)c1ccc(OC2CCN(Cc3ccccn3)CC2)cc1,-4.8,-8,3,12,0.3,.,-5,0.7,-9,-9
CCc1nccn1CCC(=O)NC1CC(C)(C)Cc2c1cnn2-c1cccc(F)c1 (configuration not stated),5.4,-3,0,0,-0.7,-5,-4,0.2,1,-2
Cc1cccc(-n2c(SCC(=O)N3CC(=O)Nc4ccccc43)nc3ccccc3c2=O)c1,2.5,8,3,5,1.5,-2,26,0.4,4,-4
CC1CN(C(=O)Cn2c(C(F)(F)F)nc3ccccc32)CC(C)O1 (configuration not stated),0.8,-5,.,.,.,-4,-7,-0.3,0,.
COCC(C)N1C(=O)Cc2c1nc(N)c1c(N)nc(N3CCN(c4ccccc4F)CC3)c(C#N)c21 (configuration not stated),6.2,5,-1,5,6.8,4,14,0.8,17,-4
O=C(/C=C/c1cnc2ccccc2n1)NC12CC3CC(CC(C3)C1)C2,-3.0,-2,.,.,.,4,-10,-0.6,-3,-5
C[C@H](CO)N1C[C@H](C)[C@@H](CN(C)C(=O)Nc2ccc(C(F)(F)F)cc2)Oc2c(NS(=O)(=O)c3cn(C)cn3)cccc2C1=O,2.1,.,-3,12,-3.4,-2,.,2.4,-4,0
COc1ccc(N2C(=O)CSC2c2cccc(F)c2)cc1 (configuration not stated),8.4*,7,1,-6,-0.5,.,2,1.0,-4,.
CCCCN(C)CCNC(=O)CCn1nc(-c2ccc(Cl)cc2)ccc1=O,-4.1,-5,4,6,3.7,-4,17,0.3,-4,0
COC(C/C=C/C(=O)COCc1ccccc1)OC,.,-6,5,33,0.4,.,2,.,14,.
CCOC(=O)c1c(NC(=O)CSc2n[nH]c(CNc3ccccc3)n2)sc(C)c1C,-2.5,28,3,-2,6.5,0,9,0.1,1,11
COc1cc(-c2noc(-c3ccccc3C(=O)NCc3ccco3)n2)cc(OC)c1OC,-2.4,-14,.,.,.,8,5,0.2,31,3
Cc1ccc(N2C(=O)c3ccc(C(=O)O)cc3C2=O)c(C)c1,-0.9,-1,.,.,.,-10,-25,0.1,1,-2
CCCc1cc(=O)oc2cc3oc(C)c(C)c3cc12,1.7,0,.,.,.,-1,14,-1.0,-10,6
Cc1ccc(C(=O)Nc2scc(-c3ccccc3)c2C(=O)O)cc1,4.9,-4,-35,-47,-9.4,-2,1,-8.3,0,-10
Cc1ccc2nc(-c3ccc(O)cc3)oc2c1,-0.3,-19,3,1,2.3,1,-8,-7.3,0,4
Cn1cncc1C#Cc1ccc2cc(CCCO)oc(=O)c2c1,0.9,.,-11,-5,-5.4,-8,.,-0.7,-3,-1
COc1ccc(C(CCNCc2ccc(N(C)C)cc2)c2ccccc2OC)cc1 (configuration not stated),-0.5,-9,-35,-51,13,30,46,2.6,32,-4
COc1ccc(N(CC(=O)NC2CC3CCC2C3)S(=O)(=O)c2ccc(C)c([N+](=O)[O-])c2)cc1 (configuration not stated),-5.2,-1,.,.,.,.,38,-0.6,4,0
Cc1cccc(NC(=S)NCCc2ccccn2)c1,1.9,-8,14,6,-1.6,-3,-24,1.9,9,1
CN(CC(O)CN)CC(O)CN1CCCCC1 (configuration not stated),-4.5,18,16,5,2.1,-1,-1,0.4,2,-4
Cc1cc(C)cc(C(=O)/C=C2\NC(=O)CS2)c1,1.4,20,.,.,.,0,15,0.5,16,26
CC(NC(=O)C(C(=O)c1cccc([N+](=O)[O-])c1)n1cc(Cl)ccc1=O)c1ccccc1 (configuration not stated),-1.5,-1,.,.,.,2,1,-1.1,0,-23
Cc1ccc(S(=O)(=O)NCCC(=O)N2CCCC(C)C2)cc1 (configuration not stated),.,0,3,6,0.8,-3,-4,0.2,2,.
CCOC(=O)[C@H]1[C@H]2COc3ccc(OC)cc3[C@@H]2N2C(=O)[C@H](C)NC(=O)[C@@]12C,3.2,.,-6,-23,3.1,0,.,0.2,-2,-3
Cc1ccc(C(=O)Nc2ccc(S(=O)(=O)N3CCCC3)cc2)cc1,-1.7,-12,-4,-10,-3.4,3,2,0.2,7,.
O=C(O)Cc1sc(Nc2ccccc2)nc1-c1ccc(Cl)cc1,-3.4,-22,-21,-17,1.3,7,17,0.3,-8,-7
CC1CCCN(c2ccc(C(=O)Nc3nnc(C4CC4)s3)cc2[N+](=O)[O-])C1 (configuration not stated),-1.0,-13,1,-1,-3.2,3,24,-0.8,2,3
O=C(Nc1cnccn1)Nc1ccccc1Cl,-0.4,?,9,4,2.1,7,-2,-3.8,-5,-6
CC1=C(C(=O)OCc2ccc3c(c2)OCO3)C(c2ccccc2)NC(=O)N1 (configuration not stated),1.7,8,.,.,.,-15,-21,-0.8,-5,5
CC(=O)Nc1ccc(NC(=O)CSc2nc3ccccc3c(=O)n2CCCN2CCOCC2)cc1,-0.6,.,12,3,5.8,-2,.,1.1,-8,2
COc1cc(S(=O)(=O)N2CCOCC2)cc(C(=O)OCC(=O)NC2CCCCC2)c1OC,9.3,.,0,12,-0.7,-3,.,1.5,2,.
Cc1cc(C)nc(SCCC(=O)Nc2ccc(F)cc2)n1,2.4,-34,-14,13,-4.9,0,2,0.4,3,41
Cn1c(SC/C=C/c2ccccc2)nnc1-c1cnccn1,-2.2,-1,.,.,.,0,-8,-0.3,2,2
Cc1ccc(CNC2CCCCC2)s1,0.9,-9,7,0,0.7,-1,-8,1.2,8,-11
CN1C(=O)CSC1=NC12CC3CC(CC(C3)C1)C2,-8.8,-14,.,.,.,-6,9,0.2,-18,-6
C=CCNC(=S)NCC1COc2ccccc2O1 (configuration not stated),0.0,14,1,4,-1.8,3,-12,0.3,8,-17
O=C(CSc1ncccn1)N1CCC(Cc2ccccc2)CC1,2.2,-6,-15,-16,-6.8,-1,5,0.6,-8,1
COC(CNc1ccc([N+](=O)[O-])c(NCC(OC)OC)c1C#N)OC,-0.2,2,1,-2,1.7,2,0,0.3,-5,16
CCCOc1ccc(C(=O)NCC(C)(C)N2CCOCC2)cc1,-3.5,-2,9,-8,3.5,1,5,0.9,-4,-8
Cc1cc(C)c(C)c(OCCN2CCOCC2)c1,4.0,-6,8,8,-0.4,-5,-14,-0.4,-1,0
O=C(NCCc1ccccc1)[C@@H]1CC=C[C@@H]2CCN(Cc3ccc(Cl)c(Cl)c3)C(=O)[C@@H]21,-3.4,-2,-43,-72,-10,99*,10,-0.2,7,.
Cn1cc([N+](=O)[O-])c(C(=O)N/N=C/c2ccccc2)n1,-1.7,?,.,.,.,-5,3,-0.9,-2,-5
O=C(O)c1ccc(OCC(O)Cn2c3ccccc3c3ccccc32)cc1 (configuration not stated),-1.6,2,-46*,-37*,-9.7*,-2,1,-0.2,0,55
O=C(CCn1c(=O)c2sccc2n(Cc2cc(=O)n3ccccc3n2)c1=O)NCc1ccco1,1.8,1,.,.,.,-5,10,0.1,-23,0
COc1cc2c(cc1OC)CN(C(=O)CCCN1C(=O)c3ccccc3C1=O)CC2,-2.2,2,.,.,.,4,-8,-0.7,6,-43
COc1cc(OC)cc(C(=O)NCCSCc2ccc(Cl)cc2)c1,1.5,-8,-28,-54,2.2,.,-3,-0.4,9,-1
O=C(Nc1cccc(-n2cnnn2)c1)c1cccc(Cl)c1,-1.1,.,-10,-4,0.1,2,3,-0.2,-3,0
COc1ccc(N2CCN(C(=O)Cn3c(=O)[nH]c4ccccc4c3=O)CC2)cc1,-0.3,?,7,2,-2.1,1,-7,2.9,.,3
COc1ccccc1-n1nnnc1SCC(=O)Nc1ccccn1,-0.7,-11,.,.,.,-30,-12,1.2,-47,0
CC(=O)Nc1ccc(Nc2ccc3nonc3c2[N+](=O)[O-])cc1,-0.4,22,4,12,2.0,-2,13,-0.5,2,.
O=C(O)c1cc(S(=O)(=O)NC(Cc2c[nH]c3ccccc23)C(=O)O)ccc1Cl (configuration not stated),1.2,.,8,22,0.3,-6,-8,-0.9,7,-170
CCOC(=O)N1CCC(N2Cc3cccc(C(=O)Nc4ccc(OC)c(OC)c4)c3C2=O)CC1,-8.1,-2,6,7,6.9,11,19,-0.9,16,.
COc1ccc(CCNC(=S)Nc2cccc(C)c2)cc1,-1.3,0,.,.,.,2,-11,0.4,6,-6
CCC(C)[C@H](NC(=O)N1CCCC1)C(=O)O (some centres not stated),-0.2,2,11,6,0.0,5,-7,0.3,-6,-1
COc1ccc2cc(CCC(C)=O)ccc2c1,13*,.,-3,-11,-1.1,-3,8,-0.4,-15,-17
CNc1c(NS(=O)(=O)c2ccc(OC)c(Cl)c2)c(=O)oc2ccccc12,8.5,11,9,3,-0.9,-7,-14,0.7,-14,5
C=CCn1c(=O)c(C(=O)NCCNCC)c(O)c2ccccc21,2.0,4,3,-3,3.2,-9,-13,-0.4,4,-5
CCCCOc1ccc(-c2ncc([N+](=O)[O-])cn2)cc1,-1.6,4,-39,-32,-9.7,-3,-3,-2.2,-6,-13
COCCNc1c(-c2ccc(O)cc2)nc2ccc(Cl)cn12,2.3,5,.,.,.,1,-7,-1.0,-3,12

# Other entries follow:
compound,LANA-H2A inh,Calb FLC,rRNA inh HTS,rRNA inh HTS OD600,rRNA inh HTS RFP,Beta cell apopt,T cruzi repl,Bfl-1 A1 inh,B2AR ag,ALR inh
CCC(=O)N1c2ccccc2[C@@H](N(C(C)=O)c2ccccc2)C[C@H]1C,-4.6,6,.,.,.,.,2,0.9,5,.
COc1cccc(C(=O)NN2CCOCC2)c1,3.3,-4,7,4,-1.5,0,-6,0.6,7,-6
CC(=O)Nc1ccc2c(CSc3nnc(-c4cccnc4)n3-c3ccc(C)cc3C)cc(=O)oc2c1,3.3,0,.,.,.,1,-4,0.3,-24,-2
COc1ccccc1N1CCN(C2CCCN(C(=O)Cn3cccn3)C2)CC1 (configuration not stated),0.9,-6,5,8,-0.2,3,-8,0.6,1,13
Nn1c(-c2ccc(O)cc2)nnc1-c1ccc(O)cc1,7.0,-4,8,5,-5.3,-3,?,-1.6,-1,?
O=C(NCC1CCN(S(=O)(=O)c2ccccc2)CC1)Nc1ccccc1,-5.4,-6,-1,8,1.4,-1,1,0.0,-5,.
COc1ccc(C(=O)NC(CC(C)C)C(=O)O)cc1 (configuration not stated),-1.8,.,0,-5,-0.2,0,.,-0.6,-3,1
COCCn1c(=NC(=O)CSCC(=O)Nc2cc(C)on2)sc2cc(C(=O)OC)ccc21,-1.8,3,-1,-2,-1.2,-2,-13,0.2,-5,92*

# Screening results from PubChem.
